Assay outcomes deposited in PubChem by PCMD.
Biofilm kill mix – mixture kills Candida albicans biofilm cells; AID 1242; 120,000 compounds, 0.02% hits; C. albicans biofilm persisters + clotrimazole, fluorescence viability; primary screen in compound mixtures of four per well; inhibition, % at 7.6 µM;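 active means inhibition above 30.3% in the primary screen of four-compound pools, then above 30% when the compound was retested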;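 further: compounds exposed to preformed 24 h biofilms for 48 h; the number belongs to the whole pool; some results filed as inactive read as strong as hits; inactives centre near 12; 0% = biofilm with clotrimazole alone and 100% = kill control; retested singly at about 60 µM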
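Assay system: C. albicans biofilms / Medium: RPMI/MOPS medium, pH 7.0 / Schedule: biofilm formation 24 h, compound exposure 48 h, 37 °C / Measured by: Alamar Blue fluorescence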
Numbers without * were called inactive.

SMILES | Biofilm kill mix
CCCCn1c(=O)[nH]c(=O)c2c1nc(-c1ccccc1F)n2Cc1ccccc1OC | 1.5
Cc1cccc(Nc2nc(NCCCN3CCOCC3)nc(N)c2[N+](=O)[O-])c1 | 5.0
COc1cc(OC)cc(C(=O)N[C@H](C(=O)Nc2nnc(C3CC3)s2)C(C)C)c1 | 11.8
CCOc1c(S(=O)(=O)NC2CC(C)(C)NC(C)(C)C2)ccc(Cl)c1Cl | 12.0
COc1cc(-n2c(=O)c3ccccc3n(CC(=O)c3ccccc3)c2=O)cc(OC)c1OC | 31.6
O=C(CSc1nc2cc(Cl)c(Cl)cc2[nH]1)c1ccc2c(c1)OCO2 | 19.2
O=C(c1cc2ccccc2o1)N(C1CC1)C1(C(=O)Nc2ccccc2)CCCC1 | -4.0
Cc1nc(CCNC(=O)CC2C(=O)NCCN2Cc2ccc(F)cc2)sc1C (stereo not given) | 11.6
O=C(CSc1nnnn1-c1cccc2c1CCCC2)N1CCCC1 | 16.6
Cc1cc2nccc(-c3ccccn3)n2n1 | 4.3
CCCCn1nc(C(=O)Nc2cc(S(=O)(=O)N(C)C)ccc2C)c2ccccc2c1=O | 12.6
CC(=O)Nc1ccc(NC(=O)CCc2nc3ccccc3c(=O)[nH]2)cc1 | 4.9
O=C1CCCC(O)=C1C=NCc1ccccc1 | 6.8
Cc1ccc(OCCn2cnc3sc(C(N)=O)c(C)c3c2=O)cc1 | 18.5
Cc1c(C(=O)N2CCOCC2)oc2ccc(S(=O)(=O)N3CCCC3)cc12 | 9.4
CCCCOC(=O)c1ccc(NC(=O)c2c(Cl)ccc(Cl)c2OC)cc1 | 6.1
COc1cc(C(=O)NNC(=S)NCc2ccco2)cc(OC)c1OC | 0.5
Cc1ccc(SCc2cc(=O)n(C)[nH]2)cc1 | 10.8
COC(=O)c1ccccc1OCCOCCOc1cccc2ccc(C)nc12 | -1.0
CCc1ccccc1NC(=O)CN(C)C(=O)CSc1nnc(Nc2ccc(C)cc2)s1 | 19.8
O=C(c1ccccc1)c1coc2c1C(=O)c1ccccc1C2=O | 15.2
CC(=O)c1ccc(OC(=O)c2ccc(-n3nc(C)cc3C)cc2)cc1 | 2.8
Nc1nc2n(n1)C(c1cccs1)CC(c1ccc(F)cc1)N2 (stereo not given) | 4.4
CCn1c(O)c(N=NC(=O)c2cccs2)c2ccccc21 | 8.0
C/C(=N/NC(=O)CNC(=O)Cc1ccccc1)c1ccco1 | 12.8
Cc1cc(NC(=O)Nc2cccc(Cl)c2)n(-c2ccccc2)n1 | 16.6
O=C(O)c1ccc(NC(CSCc2ccccc2F)C(=O)O)c([N+](=O)[O-])c1 (stereo not given) | 9.8
BrC(=C\c1ccccc1)/C=N/n1cnnc1 | 14.1
O=C(O)c1sc2ncccc2c1OCc1ccccc1 | 17.6
CCCCNC(=O)C1CCCN(S(=O)(=O)CC)C1 (stereo not given) | 2.4
Cc1ccnc(SCc2cc(=O)c(OC(=O)c3ccc(Cl)c([N+](=O)[O-])c3)co2)n1 | 13.1
Cn1nccc1-c1cc(Cl)cc(Cl)c1O | 25.2
O=C(COc1ccccc1[N+](=O)[O-])N/N=C/c1ccc(O)c([N+](=O)[O-])c1 | 9.7
CC1CCCC(NC(=O)COC(=O)c2ccccc2[N+](=O)[O-])C1C (stereo not given) | 22.3
O=[N+]([O-])c1ccc(OCC(O)CN2CCN(c3ccccc3F)CC2)cc1 (stereo not given) | 20.3
COc1cc2c(cc1OC)C(c1ccccc1)N(S(C)(=O)=O)CC2 (stereo not given) | 15.2
Cc1nc(NC(=O)c2ccccc2)sc1C1(C)CC(c2ccccc2F)=NO1 (stereo not given) | 17.3
Cc1cc(CNC(=O)CCc2nnc(CCCc3ccccc3)o2)nn1C | 12.8
O=C(Nc1cc(S(=O)(=O)N2CCCCC2)ccc1N1CCCCC1)c1ccncc1 | 7.2
Cc1ccc(-c2nc(NCc3cccnc3)c3ccccc3n2)cc1 | 15.1
O=C(c1cc(S(=O)(=O)N2CCOCC2)c(Cl)cc1Cl)N1CCCCC1CO (stereo not given) | 15.3
Cc1ccc(OCCCCn2cnc3ccccc32)cc1 | 15.1
CC(C)CCNC(=O)C(c1ccncc1)N(Cc1cccs1)C(=O)Cn1nnc(-c2ccc(F)cc2)n1 (stereo not given) | 10.1
Cc1nn(C)c(C)c1NC(=O)c1cnn2c(C(F)F)cc(-c3ccccc3)nc12 | 2.0
O=C(O)COc1ccc(/C=C2\SC(=Nc3ccccc3)N(c3ccccc3)C2=O)cc1 | 8.5
N/C(Cc1ccc(Cl)cc1)=N\OC(=O)C1CCCCC1 | 12.1
Cc1ccc(Cl)cc1NC(=S)N/N=C/c1cccc2ccccc12 | 17.8
C#CCOCCOCCOCCNc1nc(N2CCOCC2)nc(N2CCN(C(=O)[C@H](Cc3ccc(O)cc3)n3cc([C@@H](N)CC(C)C)nn3)CC2)n1 | 25.7
CC(CC(=O)Nc1ccc(C(N)=O)cc1)c1ccccc1 (stereo not given) | 12.5
Cc1cc(NC(=O)CSc2n[nH]c(=O)[nH]c2=O)ccc1Br | -22.1

Already shown: an excerpt of the list.
SMILES | Biofilm kill mix
Cc1ccc(OCCCCn2cnc3ccccc32)cc1 | 15.1
CC(C)CCNC(=O)C(c1ccncc1)N(Cc1cccs1)C(=O)Cn1nnc(-c2ccc(F)cc2)n1 (stereo not given) | 10.1
Cc1nn(C)c(C)c1NC(=O)c1cnn2c(C(F)F)cc(-c3ccccc3)nc12 | 2.0
O=C(O)COc1ccc(/C=C2\SC(=Nc3ccccc3)N(c3ccccc3)C2=O)cc1 | 8.5
N/C(Cc1ccc(Cl)cc1)=N\OC(=O)C1CCCCC1 | 12.1

(further entries)
SMILES | Biofilm kill mix
O=C(Cn1nc(-c2ccccc2)nc1-c1ccccc1)OC1CCCCC1 | 11.5
O=C(NC(=S)Nc1cccc2ncccc12)c1ccco1 | 18.0
Cc1nn(-c2ccccc2)nc1CNS(C)(=O)=O | 30.8
COc1ccc(C)cc1S(=O)(=O)N1CCC(C(=O)N2CCN(C)CC2)CC1 | 16.2
Cc1ccccc1C(=O)NC(CC(C)C)C(=O)Nc1ccc(S(N)(=O)=O)cc1 (stereo not given) | 14.6
Clc1ccc(SCCCCN2CCOCC2)cc1 | 22.9
COc1cccc(NC(=O)COC(=O)Cc2ccccc2[N+](=O)[O-])c1 | 15.5
O=C(CSc1nn(-c2ccc(F)cc2)c(=S)s1)NC(=O)NCc1ccco1 | -4.1
COC(=O)c1ccc(OC)c(-c2c(OC)cc(OC)cc2OC)c1 | 2.5
CCNC(=S)NCc1ccc(OC)c(OC)c1 | -16.1

A different layout for part of the listing above:
CC(=O)Nc1ccc(NC(=O)CCc2nc3ccccc3c(=O)[nH]2)cc1
- Biofilm kill mix = 4.9
Cc1ccc(Cl)cc1NC(=S)N/N=C/c1cccc2ccccc12
- Biofilm kill mix = 17.8
Cc1cc(NC(=O)Nc2cccc(Cl)c2)n(-c2ccccc2)n1
- Biofilm kill mix = 16.6
COc1cc(C(=O)NNC(=S)NCc2ccco2)cc(OC)c1OC
- Biofilm kill mix = 0.5

Next part:
SMILES | Biofilm kill mix
Cc1csc(NC(=O)c2ccc(C)c([N+](=O)[O-])c2)n1 | 8.8
COc1ccc2c(=O)c(C(=O)O)c(-c3ccc4c(c3)OCO4)n(C)c2c1 | 8.5
O=C(CCc1nnc(CCC2CCCCC2)o1)NCc1ccon1 | 12.7
COc1ccccc1NNC(=O)c1cc(C(C)(C)C)nn1Cc1ccccc1 | 5.4
CC(CCc1ccccc1)NC(=O)CSc1ccccn1 (stereo not given) | 12.6
COC(=O)c1cc(CNC(=O)c2ccccc2Cl)ccc1OC | 6.5
Cc1nnc(SCC(=O)Nc2nc3ccccc3s2)n(N)c1=O | 13.8
CCc1c(O)cc(=O)n(-c2ccccc2)c1-c1ccccc1 | 20.6
Cc1ccn2c(-c3n[nH]c(=S)n3C)c(C)nc2c1 | 12.4
Cn1c(=O)c2c(nc(SCC(=O)c3ccccc3F)n2C)n(C)c1=O | -4.5
c1ccc(CNc2nc(NCc3ccco3)nc(N3CCOCC3)n2)cc1 | 19.9
COc1ccccc1CNC(=O)C(=O)NCC1OCCN1C(=O)c1ccc(Cl)cc1 (stereo not given) | 14.4
COc1cc(NC(=O)C(=O)N2CCN(C)CC2)c(OC)cc1Cl | 18.4
CC1CCN(S(=O)(=O)c2cc([N+](=O)[O-])ccc2Cl)CC1 | 34.4
COC(=O)c1c(NC(=O)CN2CCCc3ccccc32)sc(C)c1C | 5.8
O=C(COC(=O)c1cc(NS(=O)(=O)c2cccs2)ccc1O)Nc1ccc(F)c(F)c1F | 2.0
CC(C)=CC(=O)OCC(=O)Nc1cc([N+](=O)[O-])ccc1F | -2.2
CC(=O)Nc1ccc(C)c([N+](=O)[O-])c1 | 19.1
CCOC(=O)c1c(NC(=O)CSc2nnc(CNc3ccc(C)cc3C)o2)sc(C)c1C | 17.2
Cc1nccc(-c2ccc3c(c2)OCO3)n1 | 12.7
O=C(CSc1nnc2ccccn12)NC(=O)Cc1ccccc1 | 35.6
CC(Cc1ccccc1)NC(=O)c1cc([N+](=O)[O-])ccc1Cl (stereo not given) | 13.9
CCS(=O)(=O)N1CCC(C(=O)NCc2ccc(OC)cc2OC)CC1 | 8.8
CCCN(CC(=O)Nc1ccc(C(N)=O)cc1)CC(=O)Nc1ccccc1C | 8.5
Cc1c(C(=O)N/N=C/c2cccnc2)sc(=S)n1C | 10.9
O=S(=O)(CCN1CCSCC1)c1ccccc1 | 18.2
C=CCc1c(C)nc(-c2ccccc2)nc1N/N=C/c1ccncc1 | 11.0
O=C(/C=C/c1ccccc1Cl)Nc1cccc(O)c1 | 8.6
O=C(O)CCCCCNC(=O)Cn1nnc2ccccc2c1=O | 24.3
COc1ccc(N2CCN(c3ccc(N4C(=O)COCC4=O)cc3[N+](=O)[O-])CC2)cc1 | 4.6
CC(=O)Nc1ccc(C(=O)NCCc2ccccc2)cc1 | 19.9
COc1ccc(Nc2nc(Cl)nc(Nc3ccc(OC)cc3)n2)cc1 | 3.8
O=C(N/N=C/c1cccs1)c1cccnc1 | 26.1
O=C(NNc1nc(-c2ccc(Br)cc2)cs1)c1ccco1 | 8.4
Cc1ccc(C2N(c3cccc(Cl)c3)C(=O)N3CCCN23)cc1 (stereo not given) | -2.8
COc1ccc(C(=O)Nc2sc(C)c(C)c2CN2CC(C)OC(C)C2)cc1 (stereo not given) | 8.1
COc1ccc2c(-c3ccccc3)cc(SCC(=O)N(C)C)nc2c1 | 28.7
CN1CCN(c2ccccc2NC(=O)c2ccc([N+](=O)[O-])cc2Cl)CC1 | 16.9
O=C(c1cccc(F)c1F)N1CCCC1 | 14.4
COCCNC(=O)/C(C#N)=C/c1ccc(C(=O)O)cc1 | 19.2
CC(C)C(=O)NNC(=O)CSc1nc(C2CCCCC2)nc2ccccc12 | 16.7
CCC1(C)Cc2ccccc2-c2nc(NCCCO)n(C)c(=O)c21 (stereo not given) | 18.3
CCOC(=O)c1nnn2c1nc(N1CCOCC1)c1ccccc12 | 14.2
OCC1CCN(Cc2cn(Cc3ccccc3)nc2-c2cc3ccccc3o2)CC1 | 8.7
Cc1nn(C)c(C(=O)N/N=C/c2ccc(Br)cc2)c1Cl | 14.2
CC(=O)Nc1ccc(NC(=O)c2ccc(C)c(S(=O)(=O)Nc3cccc(C)c3)c2)cc1 | 0.8
CO[C@@]1(NC(=O)Cc2cccs2)C(=O)N2C(C(=O)O)=C(COC(N)=O)CS[C@@H]21 | 7.6
COc1cc(S(=O)(=O)Nc2ccc3cn[nH]c3c2)ccc1Cl | 15.8
COc1cc(/C=C(\C#N)C(=O)NCc2cccs2)ccc1O | 9.2
O=[N+]([O-])c1ccc(S(=O)(=O)NCC2CCCO2)cc1 (stereo not given) | -16.4

The list continues:
SMILES | Biofilm kill mix
Nc1nc(NCCCN2CCOCC2)nc(Nc2ccc(F)cc2)c1[N+](=O)[O-] | -3.3
Cc1ccc(OCCn2c(=O)oc3ccc(C)cc32)cc1 | 26.0
CCCCCN(C(=O)NC(=O)Nc1ccccc1C)S(=O)(=O)c1ccccc1 | 5.2
NC(=O)CSc1n[nH]c(-c2ccco2)n1 | 14.2
COc1ccc(C(=O)[C@H]2[C@H]3C(=O)N(c4ccc(OC(C)=O)cc4)C(=O)[C@H]3C3C=CC=NN32)cc1 (stereo not given in full) | 21.2
O=C(O)c1cccc(NC(=S)N/N=C/c2ccccc2OCc2cccc(Br)c2)c1 | 17.6
Oc1c(N=NC(=S)Nc2ccccc2F)c2ccccc2n1Cc1ccccc1Cl | 15.0
Cc1nc(C(N)=O)nc2ccccc12 | 15.9
CCOCCOC(NC(=O)c1ccccc1)(C(F)(F)F)C(F)(F)F | 4.4
CC(C)(C)c1ccc(-c2n[nH]c(=S)n2CC2CCCO2)cc1 (stereo not given) | 22.1

Look-ups from the entries so far:
Cc1nc(C(N)=O)nc2ccccc12 | Biofilm kill mix = 15.9
NC(=O)CSc1n[nH]c(-c2ccco2)n1 | Biofilm kill mix = 14.2
Oc1c(N=NC(=S)Nc2ccccc2F)c2ccccc2n1Cc1ccccc1Cl | Biofilm kill mix = 15.0
CCCCCN(C(=O)NC(=O)Nc1ccccc1C)S(=O)(=O)c1ccccc1 | Biofilm kill mix = 5.2

Next part:
SMILES | Biofilm kill mix
CN(C)c1ccc(-c2n[nH]c(=S)n2-c2ccccc2)cc1 | -18.2
CCN=C1SC(CC(N)=O)C(=O)N1CC (stereo not given) | 13.2
CN(C)c1ccc(N=Nc2ccccc2C(=O)OCC(=O)NC2CCCC2)cc1 | 14.4
Cc1ccccc1-c1nc2sc3c(c2c(=O)o1)CCC3 | 13.2
Cn1c(SCC(=O)N2CCN(c3ccccc3)CC2)nnc1-c1ccncc1 | 18.5
O=C1CC(c2ccc(F)cc2)Sc2nc(-c3ccccc3)c(-c3ccccc3)n21 (stereo not given) | 6.3
COc1ccc(CCN(C)C(=O)C2CCCN(Cc3ccc(OC)c(OC)c3)C2)cc1OC (stereo not given) | -0.5
CCSC(=O)NC1CCCCC1 | 24.0
COC(=O)c1sc(-c2ccc(Cl)cc2)cc1NC(=O)COCC(=O)O | 18.3
O=C(CNCCN1CCOCC1)Nc1ccccc1Sc1ccccc1 | -2.1
CNNC(=S)Nc1ccc(Cl)cc1 | 27.6

An excerpt. The share of hits here may be higher or lower than overall.
